# hNpr1 antagonist = Natriuretic polypeptide receptor (hNpr1) antagonism - Primary qHTS; AID 1347048, 2019; HEK293 hNpr1 GloSensor cGMP, ANP-stimulated luminescence; Potency, µM (top dose mostly 46.3 µM), without a hit: top-dose activity change, negative = inhibition, hits mostly inhibitors; 76,000 compounds, 1.6% hits; active = well fitted inhibition curve with a large enough effect; inconclusive = small, poorly fitted or top-dose-only effect; inactive = no such curve, though single readings can be large or run the other way;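 note: nearly all actives have a fitted effect of over 60% in size; nearly all hits also lower the signal before the agonist is added; a reference antagonist and vehicle were the controls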
# Target sequence (P16066 whole entry, looked up): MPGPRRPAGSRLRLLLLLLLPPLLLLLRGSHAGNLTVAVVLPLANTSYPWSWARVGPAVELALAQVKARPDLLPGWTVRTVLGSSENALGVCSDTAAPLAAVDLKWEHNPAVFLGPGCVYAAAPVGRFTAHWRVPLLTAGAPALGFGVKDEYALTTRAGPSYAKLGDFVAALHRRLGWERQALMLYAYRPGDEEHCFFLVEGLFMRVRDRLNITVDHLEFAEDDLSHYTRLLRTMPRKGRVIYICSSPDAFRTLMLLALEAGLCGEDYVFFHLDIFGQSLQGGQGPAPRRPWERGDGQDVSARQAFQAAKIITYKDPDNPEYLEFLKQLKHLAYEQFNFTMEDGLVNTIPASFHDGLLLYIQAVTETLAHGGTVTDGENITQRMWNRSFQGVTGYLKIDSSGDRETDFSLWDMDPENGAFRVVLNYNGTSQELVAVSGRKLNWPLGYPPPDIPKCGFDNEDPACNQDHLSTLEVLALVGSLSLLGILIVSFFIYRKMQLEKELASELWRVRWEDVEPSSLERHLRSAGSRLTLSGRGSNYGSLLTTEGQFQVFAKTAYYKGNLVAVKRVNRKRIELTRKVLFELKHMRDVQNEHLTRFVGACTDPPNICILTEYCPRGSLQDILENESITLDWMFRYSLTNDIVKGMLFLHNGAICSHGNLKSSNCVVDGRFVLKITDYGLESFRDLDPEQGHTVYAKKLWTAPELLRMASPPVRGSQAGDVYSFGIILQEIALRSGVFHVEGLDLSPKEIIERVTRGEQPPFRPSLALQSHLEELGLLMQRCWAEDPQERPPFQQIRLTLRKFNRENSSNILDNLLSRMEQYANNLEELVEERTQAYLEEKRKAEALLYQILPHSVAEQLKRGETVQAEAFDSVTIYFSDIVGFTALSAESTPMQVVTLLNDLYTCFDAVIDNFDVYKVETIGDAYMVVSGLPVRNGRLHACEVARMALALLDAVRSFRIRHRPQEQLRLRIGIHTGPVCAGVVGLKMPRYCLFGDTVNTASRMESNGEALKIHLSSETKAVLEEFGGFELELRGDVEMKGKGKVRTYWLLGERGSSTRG
#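 Compound pre-incubated 30 min at room temperature on GloSensor-loaded HEK293 cells stably carrying hNpr1 and the pGS-40F cGMP biosensor. Stimulation uses hNppA at 0.1 nM final; luminescence is taken at baseline and 20 min post-agonist.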
# * = called active by the depositor; ? = inconclusive; [ ] = dose if it differs, or a comment. % is set by controls: 0 for no effect and ±100 for the full control effect; potency is the fitted concentration of half-maximal effect. An excerpt; count on the stated rates, not on these rows.
SMILES	hNpr1 antagonist
O=C(NCC1CC1)c1cn(C2CNC2)nn1	6%
COCC(=O)NC[C@H]1C[C@@H]2CCN1C[C@@H]2c1cc(-c2ccccc2Br)nc(C)n1	0%
CC(C)NC(=O)NC[C@H]1C[C@@H]2CCN1C[C@@H]2c1cc(C2CCCC2)nn1C	0%[70.6 µM]
C#C[C@H]1CN2CC[C@H]1C[C@@H]2CNC(=O)c1ccc(C(F)(F)F)cc1	-2%[70.6 µM]
Cc1ncc2c(n1)C[C@@H]1CC[C@H]2N1C(=O)Nc1ccccc1F	4%
NC(=O)c1ccc(-c2cccc3c2CCNC3)s1	2%
O=C(Nc1cccc(F)c1)N1C[C@@H]2C[C@H](C1)c1c(-c3ccc(Cl)cc3)ccc(=O)n1C2	-10%
Cc1nc(-c2ccc(N(C)C)cc2)cc([C@H]2CN3CC[C@H]2C[C@@H]3CNC(=O)NC(C)C)n1	1%[70.6 µM]
COCC1CN(C)CC12CCN(Cc1cccnc1)CC2 (stereo unspecified)	-2%
O=C1NCCCCCCN(Cc2ccccn2)[C@H]2CCC[C@@H]12	-6%
O=C(Nc1ccc2n(c1=O)C[C@H]1C[C@@H]2CN(CC2CCCCC2)C1)C1CCCCC1	-22%[70.6 µM]
CCN1C(=O)CCNCC12CCOCC2	-2%
C#C[C@H]1CN2CC[C@H]1C[C@@H]2CNCc1ccc(N(C)C)cc1	4%[70.6 µM]
COc1cc2c(cc1OCc1ccccc1)N([S+](=O)([O-])c1ccccc1C(F)(F)F)CC21CCN(C)CC1	-15%
C=C[C@H]1CN2CC[C@H]1C[C@@H]2CNC(=O)c1ccccc1C(=O)O	2%[70.6 µM]
O=C([C@H]1CN2CCC1C[C@@H]2Cn1cc(CSc2ccccc2)nn1)N1CCOCC1 (stereo partly specified)	-3%[70.6 µM]

# Next part, starting with the last three of the part before.
SMILES	hNpr1 antagonist
COc1cc2c(cc1OCc1ccccc1)N([S+](=O)([O-])c1ccccc1C(F)(F)F)CC21CCN(C)CC1	-15%
C=C[C@H]1CN2CC[C@H]1C[C@@H]2CNC(=O)c1ccccc1C(=O)O	2%[70.6 µM]
O=C([C@H]1CN2CCC1C[C@@H]2Cn1cc(CSc2ccccc2)nn1)N1CCOCC1 (stereo partly specified)	-3%[70.6 µM]
Cn1nc(-c2cccs2)cc1[C@H]1CN2CC[C@H]1C[C@@H]2CNS(=O)(=O)c1ccccc1	3%
O=C(Nc1ccc2n(c1=O)C[C@H]1C[C@@H]2CN(C(=O)c2ccccn2)C1)C1CCCCC1	0%[70.6 µM]
O=C1NC2(CN(CC3CC3)C2)Oc2ccccc21	1%[70.6 µM]
COc1cc2c(cc1OCc1ccccc1)N(C(=O)COc1ccccc1)CC21CCN(C)CC1	0%
CN1c2ncccc2CN(Cc2ccccn2)CC[C@H]1CO	-1%[70.6 µM]
O=C(Nc1nccs1)[C@H]1CN2CC[C@H]1C[C@@H]2Cn1cc(C2(O)CCCCC2)nn1	4%[70.6 µM]
C#C[C@H]1CN2CC[C@H]1C[C@@H]2CNS(=O)(=O)c1ccc(Cl)cc1	2%[70.6 µM]
O=C1NC[C@H]2CN(C3CCC3)CCN12	7%[122 µM]
CN1CCC(NC2CCOCC2)CC1	2%
N#CC1(c2ccccc2)CCN(C(=O)c2ccc3nccn3c2)CC1	-4%
Cc1ccc(C(=O)NC[C@H]2C[C@@H]3CCN2C[C@@H]3c2cc(-c3ccc(F)cc3)nn2C)cc1	-27%[70.6 µM]
COc1cc2c(cc1Oc1cccc(N(C)C)c1)NC(=O)C21CCN(C(=O)CN2CCOCC2)CC1	-17%
C#C[C@H]1CN2CC[C@H]1C[C@@H]2CNCc1ccc(OC)cc1	5%[70.6 µM]
COc1ccc(-c2cc([C@H]3CN4CC[C@H]3C[C@@H]4COC(=O)NC(C)C)nc(C)n2)cc1	1%[70.6 µM]
C#C[C@H]1CN2CC[C@H]1C[C@@H]2CNC(=O)Nc1cccc(C(F)(F)F)c1	-2%[70.6 µM]
CS(=O)(=O)N1C[C@H]2CCN(Cc3ccc[nH]3)C[C@H]21	13%
O=C(NC[C@H]1C[C@@H]2CCN1C[C@@H]2CN1CCN(c2ccc(F)cc2)CC1)Nc1cccc(F)c1	-19%
COCCNC(=O)[C@H]1CN2CC[C@H]1C[C@@H]2Cn1cc(-c2ccccc2)nn1	1%[70.6 µM]
COCc1cn(C[C@H]2C[C@@H]3CCN2C[C@@H]3C(=O)N2CCCC2)nn1	4%[70.6 µM]
O=C(Nc1ccc(=O)n2c1[C@@H]1C[C@@H](CN(S(=O)(=O)c3ccccc3)C1)C2)c1cccnc1	1%
Cc1cccnc1CN1CCN2C(=O)N(c3ccccc3)C[C@H]2C1	4%[70.6 µM]
CC(=O)c1ccc(NC(=O)NC[C@H]2C[C@@H]3CCN2C[C@@H]3CN2CCOCC2)cc1	1%[70.6 µM]
CC(=O)Nc1ccc(-c2ccc(=O)n3c2[C@@H]2C[C@@H](CN(C(=O)c4cccs4)C2)C3)cc1	1%[70.6 µM]
Cc1cc(C(=O)N2[C@H]3CC[C@@H]2c2cnc(-c4ccc(F)cc4)nc2C3)nn1C	?

# The last 3 entries of the part above are carried over, then new ones follow:
SMILES	hNpr1 antagonist
CC(=O)c1ccc(NC(=O)NC[C@H]2C[C@@H]3CCN2C[C@@H]3CN2CCOCC2)cc1	1%[70.6 µM]
CC(=O)Nc1ccc(-c2ccc(=O)n3c2[C@@H]2C[C@@H](CN(C(=O)c4cccs4)C2)C3)cc1	1%[70.6 µM]
Cc1cc(C(=O)N2[C@H]3CC[C@@H]2c2cnc(-c4ccc(F)cc4)nc2C3)nn1C	?
Cc1ccc2c(n1)N(C)[C@H](CO)CCN(CC(C)C)C2	5%[70.6 µM]
COc1ccc(-c2cn(C[C@H]3C[C@@H]4CCN3C[C@@H]4C(=O)NC(C)C)nn2)cc1	1%[70.6 µM]
CN(C)C(=O)[C@H]1CN2CCC1C[C@@H]2Cn1cc(-c2cccc(O)c2)nn1 (stereo partly specified)	4%[70.6 µM]
COc1ccc(-c2cc([C@H]3CN4CC[C@H]3C[C@@H]4CNS(=O)(=O)c3ccc(Cl)cc3)n(C)n2)cc1OC	-5%
COc1ccc(C(=O)N2[C@H]3CC[C@@H]2c2cnc(C)nc2C3)c(OC)c1	-7%
O=C(N1[C@H]2CC[C@@H]1c1cnc(-c3ccc(F)cc3)nc1C2)C1(c2ccccc2)CC1	-18%
O=C(CCn1cccn1)N1C[C@H](c2cccc(F)c2F)[C@@H]2[C@H]1C1CCN2CC1	-3%
CC[C@H]1CN2CC[C@H]1C[C@@H]2CNC(=O)NC1CCCCC1	-1%[70.6 µM]

# Single values from the entries so far.
# hNpr1 antagonist, O=C(Nc1ccc2n(c1=O)C[C@H]1C[C@@H]2CN(CC2CCCCC2)C1)C1CCCCC1 = -22%[70.6 µM]
# hNpr1 antagonist, O=C(CCn1cccn1)N1C[C@H](c2cccc(F)c2F)[C@@H]2[C@H]1C1CCN2CC1 = -3%

# (next part)
SMILES	hNpr1 antagonist
CCOc1ccc2c(n1)CCNC2	13%
COc1cccc(S(=O)(=O)N2[C@H]3CC[C@@H]2c2cnc(C)nc2C3)c1	6%
CCc1cnc(N2CCC3(CC2)C(=O)Nc2cc(Oc4ccccc4)c(OC)cc23)nc1	-16%[70.6 µM]
COC[C@H]1CCCN1C[C@H]1CN2CC[C@H]1C[C@@H]2CNC(=S)Nc1ccc(-n2cccn2)cc1	2%
CN1CCN(C(=O)Cc2c[nH]c3ncc(-c4cccc(Cl)c4)cc23)CC1	-23%[70.6 µM]
O=C(Nc1ccccc1)Nc1ccc2n(c1=O)C[C@H]1C[C@@H]2CN(C(=O)c2ccccc2)C1	-5%[70.6 µM]
CC[C@H]1CN2CC[C@H]1C[C@@H]2CNC(=O)c1ccc(-c2ccccc2)cc1	2%[70.6 µM]
CC(C)NC(=O)OC[C@H]1C[C@@H]2CCN1C[C@@H]2c1cc(-c2ccc(F)cc2)nn1C	-2%[70.6 µM]
O=C([C@H]1CN2CCC1C[C@@H]2Cn1cc(CCO)nn1)N1CCOCC1 (stereo partly specified)	-4%[70.6 µM]
Cc1ccc2c(n1)N(C)[C@H](CO)CCN(C1COC1)C2	0%[70.6 µM]
CC1CCN(C[C@H]2CN3CC[C@H]2C[C@@H]3CNC(=O)c2ccc3c(c2)OCO3)CC1	-3%[70.6 µM]
O=C(NC[C@H]1C[C@@H]2CCN1C[C@@H]2CN1CCCCC1)c1ccc2c(c1)OCO2	3%[70.6 µM]
Cn1nc(C2CCCC2)cc1[C@H]1CN2CC[C@H]1C[C@@H]2CNS(=O)(=O)c1ccccc1	0%[70.6 µM]
CCC(C(=O)N1CCC(C#N)(c2ccccc2)CC1)n1cccn1 (stereo unspecified)	-3%
COc1ccc(-c2cc([C@H]3CN4CC[C@H]3C[C@@H]4CNC(=O)Nc3cccc(C(C)=O)c3)n(C)n2)cc1OC	-1%
COc1cc2c(cc1OC1CCCC1)NC(=O)C21CCN(c2ncc(F)cn2)CC1	-5%[70.6 µM]

# Reprinted at random: 3 records from the list
SMILES	hNpr1 antagonist
COc1cc2c(cc1OC1CCCC1)NC(=O)C21CCN(c2ncc(F)cn2)CC1	-5%[70.6 µM]
O=C([C@H]1CN2CCC1C[C@@H]2Cn1cc(CCO)nn1)N1CCOCC1 (stereo partly specified)	-4%[70.6 µM]
CC1CCN(C[C@H]2CN3CC[C@H]2C[C@@H]3CNC(=O)c2ccc3c(c2)OCO3)CC1	-3%[70.6 µM]

# Additional results follow:
CN1C(=O)[C@H]2CN(Cc3ccc(Br)s3)C[C@H]2C1=O
- hNpr1 antagonist = 8%
Cc1ccc(S(=O)(=O)NC[C@H]2C[C@@H]3CCN2C[C@@H]3CN2CCSCC2)cc1
- hNpr1 antagonist = 0%[70.6 µM]
CN1CCN(C(=O)Cc2c[nH]c3ncc(-c4ccc(F)c(Cl)c4)cc23)CC1
- hNpr1 antagonist = -16%[70.6 µM]
COc1cc2c(cc1OCC1CC1)NC(=O)C21CCN(C(=O)CCc2cccnc2)CC1
- hNpr1 antagonist = -3%[70.6 µM]
O=C1N(Cc2cccnc2)C[C@H]2CN(C3CCOCC3)CCN12
- hNpr1 antagonist = 15%[70.6 µM]
O=C([C@H]1CN2CCC1C[C@@H]2Cn1cc(COc2ccccc2)nn1)N1CCOCC1 (stereo partly specified)
- hNpr1 antagonist = 5%[70.6 µM]
C#C[C@H]1CN2CC[C@H]1C[C@@H]2CNC(=O)Nc1cccc(SC)c1
- hNpr1 antagonist = 4%[70.6 µM]
O=C(Cc1ccc(CO)cc1)N1CCN(Cc2cn[nH]n2)CC(O)C1 (stereo unspecified)
- hNpr1 antagonist = 1%
O=C(C1CCCCC1)N1C[C@@H]2C[C@H](C1)c1c(-c3ccc(Cl)cc3)ccc(=O)n1C2
- hNpr1 antagonist = 5%[70.6 µM]
COc1ccc2c(c1)C1(CCN(C(=O)COc3ccc(Cl)cc3)C1)C(=O)N2C (stereo unspecified)
- hNpr1 antagonist = -19%
Cc1ccc(NC(=O)N2C[C@@H]3C[C@H](C2)c2c(-c4cccs4)ccc(=O)n2C3)cc1
- hNpr1 antagonist = 0%[70.6 µM]
CC(C)NC(=O)[C@H]1CN2CCC1C[C@@H]2Cn1cc(CN(C)Cc2ccccc2)nn1 (stereo partly specified)
- hNpr1 antagonist = -6%[70.6 µM]
COC[C@H]1C[C@@H](NC2CCC2)[C@H](O)[C@@H]1O
- hNpr1 antagonist = 4%[70.6 µM]
COc1ccc(NC(=O)N2[C@H]3CC[C@@H]2c2cnc(C)nc2C3)c(C)c1
- hNpr1 antagonist = 2%
COc1cc(CCC(=O)N2CCC3(CC2)NCc2ccccc2-n2ccnc23)on1
- hNpr1 antagonist = -12%

CN1C[C@@H]2OCC(=O)N[C@@H]2C1
- hNpr1 antagonist = 3%[122 µM]
COc1ccccc1-c1cc([C@H]2CN3CC[C@H]2C[C@@H]3CNC(=O)c2ccc(C)cc2)n(C)n1
- hNpr1 antagonist = 0%
CC(C)(O)c1cn(C[C@H]2CC3CCN2C[C@@H]3C(=O)NC2CCCCC2)nn1 (stereo partly specified)
- hNpr1 antagonist = -2%[70.6 µM]
C=C[C@H]1CN2CC[C@H]1C[C@@H]2CNC(=O)C1CCCCC1
- hNpr1 antagonist = -2%[70.6 µM]
COc1ccc2c(c1)C1(CCN(C(=O)COc3ccccc3)C1)C(=O)N2C (stereo unspecified)
- hNpr1 antagonist = -14%
COc1cc2c(cc1OCc1ccncc1)NC(=O)C21CCN(Cc2ccccc2)CC1
- hNpr1 antagonist = -27%[70.6 µM]
C=CCN(C)C[C@H]1CN2CC[C@H]1C[C@@H]2CNC(=O)Nc1cccc(SC)c1
- hNpr1 antagonist = -1%[70.6 µM]
CCCS(=O)(=O)N1[C@H]2CC[C@@H]1c1cnc(C)nc1C2
- hNpr1 antagonist = 13%
O=C(NCc1ccccc1)[C@H]1CN2CCC1C[C@@H]2Cn1cc(CC2CCCCC2)nn1 (stereo partly specified)
- hNpr1 antagonist = -1%[70.6 µM]
O=C(C1CC1)N1[C@H]2CC[C@@H]1c1cnc(-c3ccc(F)cc3)nc1C2
- hNpr1 antagonist = ?
O=C(NCc1ccncc1)C1CNCC12CCOCC2 (stereo unspecified)
- hNpr1 antagonist = -1%
COCC(=O)N1[C@H]2CC[C@@H]1c1cnc(-c3ccccc3)nc1C2
- hNpr1 antagonist = 2%
O=C(NC1CC1)[C@H]1CN2CCC1C[C@@H]2Cn1cc(C2(O)CCCCC2)nn1 (stereo partly specified)
- hNpr1 antagonist = 5%[70.6 µM]
